Compound activity (PubChem BioAssay)
2A StopGo: FMDV 2A StopGo reporter, luciferase signal. human cells with a luciferase reporter of 2A StopGo recoding; control for the full effect not named in the record. Potency, µM (series often up to 57.9 µM), inactives show at the top dose signal change, negative = less light. actives 1.2% (n = 410,000); active = well fitted falling curve with a large enough effect; inconclusive = small, poorly fitted or top-dose-only effect; inactive = no such curve, though single readings can be large or run the other way; tested in HEK293T cells; further: nearly all actives have a fitted effect of over 45% in size; luciferase light after 4 h
RE007 growth inh: less growth of the S. pombe RE007 Vpr strain; actives 0.21% (n = 360,000); Potency, µM (titrated, usually from 92.2 µM), inactives show at the highest dose activity change, negative = less growth; S. pombe RE007 Vpr strain, BacTiter-Glo ATP luminescence, 24 h; control for the full effect not named in the record; active = well fitted falling curve with a large enough effect; inconclusive = small, poorly fitted or top-dose-only effect; inactive = no such curve, though single readings can be large or run the other way;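 further: nearly all actives have a fitted effect of over 50% in size; the assay follows cell death caused by Vpr and the record does not say whether a fall means rescue or toxicity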
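Fission yeast strain RE007, carrying one chromosomally integrated HIV-1 vpr copy, was seeded at OD 0.01 in PMG+AL medium with 23 nL pinned compound. After 24 h at 30 °C and 99% humidity, viability was read by BacTiter-Glo luminescence.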
Active calls of the source: *; [ ] = remark or other dose. On the % scale 0 is the no-effect control and ±100 the full control effect; potency means the concentration at half of the fitted maximal effect. The list is partial (hit frequency here may not be typical).

Start of the listing, in advance (three entries):
Results for CSCCC(C)N1CCC(Oc2ccc(C(=O)NCc3ccccn3)cc2)CC1 (stereo not drawn) ?
2A StopGo: -5%; RE007 growth inh: 4%

What do the screens show for `O=C(c1ccccn1)N(Cc1ccco1)C1(C(=O)Nc2ccc(Br)cc2)CCCCC1`?
2A StopGo: 0%; RE007 growth inh: -11%

Results for C[C@H]1CN([C@@H](C)CO)S(=O)(=O)c2ccc(Br)cc2O[C@H]1CN(C)Cc1ccccc1 ?
2A StopGo: inconclusive; RE007 growth inh: 12%

All compounds of this part, previewed entries included:
Results for CSCCC(C)N1CCC(Oc2ccc(C(=O)NCc3ccccn3)cc2)CC1 (stereo not drawn) ?
2A StopGo: -5%; RE007 growth inh: 4%

What do the screens show for `O=C(c1ccccn1)N(Cc1ccco1)C1(C(=O)Nc2ccc(Br)cc2)CCCCC1`?
2A StopGo: 0%; RE007 growth inh: -11%

Results for C[C@H]1CN([C@@H](C)CO)S(=O)(=O)c2ccc(Br)cc2O[C@H]1CN(C)Cc1ccccc1 ?
2A StopGo: inconclusive; RE007 growth inh: 12%

Results for O=C(NCc1cccs1)C1Cc2c(-c3ccccc3Oc3ccccc3)ccnc2O1 (stereo not drawn) ?
2A StopGo: -21%; RE007 growth inh: -7%

How did COc1ccc(-c2cc(C(=O)Nc3cc(OC)c(OC)c(OC)c3)[nH]n2)c(C)c1 do in these assays?
2A StopGo: -25%; RE007 growth inh: -3%

Results for CC(C)N1CCC(C)(C(=O)Nc2cccc3c2CCCC3)C1 (stereo not drawn) ?
2A StopGo: -16%; RE007 growth inh: 6%

What do the screens show for `COc1ccccc1-c1ccc2c(c1)C(C)(Cc1ccccc1C#N)C(=O)N2` (stereo not drawn)?
2A StopGo: -25%; RE007 growth inh: -8%[18.4 µM]

How did COc1ccc(CNC(=O)C2(C)Cc3c(-c4cccc(C(N)=O)c4)ccnc3O2)cc1OC (stereo not drawn) do in these assays?
2A StopGo: -15%; RE007 growth inh: -7%[18.4 µM]

What do the screens show for `CCN(CC)C(=O)C1=C(C)N(Cc2ccc(C(C)(C)C)cc2)C(=O)C(CC(=O)NCCN2CCOCC2)C1` (stereo not drawn)?
2A StopGo: -8%; RE007 growth inh: -12%

Results for C=C1[C@@H](O)[C@H](CC(C)C)N(Cc2ccccc2Br)S1(=O)=O ?
2A StopGo: inconclusive; RE007 growth inh: 4%

Results for C[C@@H]1CN([C@H](C)CO)C(=O)CCCn2nncc2CO[C@@H]1CN(C)S(=O)(=O)c1cn(C)cn1 ?
2A StopGo: -22%; RE007 growth inh: 0%

Results for CC(=O)Nc1cnc(-c2cc(C)c(O)c(C)c2)cn1 ?
2A StopGo: 43%[activator]; RE007 growth inh: 8%[18.4 µM]

Results for CN(Cc1ccccc1)C(=O)c1ccc(NC(=O)Cc2ccc(NC(=O)C3CCN(C(=O)C4CCC4)CC3)cc2)cc1 ?
2A StopGo: -20%; RE007 growth inh: 7%

Results for CCN(C(=O)COC(=O)/C=C/c1ccc2c(c1)OCO2)c1c(N)n(Cc2ccccc2)c(=O)[nH]c1=O ?
2A StopGo: -4%; RE007 growth inh: -10%

How did CC1=C(C(=O)N(C(C)C)C(C)C)CC(CC(=O)NCc2cccs2)C(=O)N1CCC1=CCCCC1 (stereo not drawn) do in these assays?
2A StopGo: 6%; RE007 growth inh: 9%

What do the screens show for `COc1cccc(CSC(C(=O)O)c2ccccc2)c1` (stereo not drawn)?
2A StopGo: -13%; RE007 growth inh: -15%

How did CC(=O)Oc1[nH]c(=O)c2cccc3c2c1CCC3 do in these assays?
2A StopGo: -28%; RE007 growth inh: 4%

Results for C[C@@H]1CC2=C(C(=O)OC(C)(C)O2)[C@H](c2ccc(Cl)cc2)O1 ?
2A StopGo: 0%; RE007 growth inh: -24%

Results for NC(CCc1ccccc1)c1csc(NC(=O)Nc2ccccc2Oc2ccccc2)n1 (stereo not drawn) ?
2A StopGo: inconclusive; RE007 growth inh: 1%

Results for Nc1ccn(C2OC(CO)C(O)C2F)c(=O)n1 (stereo not drawn) ?
2A StopGo: -20%; RE007 growth inh: 11%

How did Clc1ccccc1CNCc1ccc2c(c1)OCO2 do in these assays?
2A StopGo: 29%; RE007 growth inh: 1%

What do the screens show for `COc1ccccc1-c1cnc(C(O)c2cc(Cl)cc(Cl)c2)[nH]1` (stereo not drawn)?
2A StopGo: -11%; RE007 growth inh: -14%

How did O=C(C=C1NCCN1)c1ccccc1 do in these assays?
2A StopGo: 31%[activator]; RE007 growth inh: -7%

How did O=C(CC[C@H]1O[C@@H](n2cnc3c(NC(=O)c4ccccc4)ncnc32)[C@H](O)[C@@H]1O)NCC1CCN(Cc2ccccc2)CC1 do in these assays?
2A StopGo: -13%; RE007 growth inh: -19%

How did CCCS(=O)(=O)NC(=O)C1(C)CCN(C(=O)c2c(F)cccc2F)C1 (stereo not drawn) do in these assays?
2A StopGo: -22%; RE007 growth inh: -14%

How did COc1ccc(C(=O)Nc2cc(S(=O)(=O)N3CCCCC3)ccc2C)cc1 do in these assays?
2A StopGo: -19%; RE007 growth inh: 21%

Results for COc1cc(C=C(OC(C)=O)c2ccc3c(c2)OCO3)cc(OC)c1OC ?
2A StopGo: inconclusive; RE007 growth inh: -15%[18.4 µM]

What do the screens show for `O=C(Nc1nncs1)C1CCCC1`?
2A StopGo: -21%; RE007 growth inh: 12%

What do the screens show for `COc1ccc(C(c2nnnn2Cc2ccccc2)N2CCN(C/C=C/c3ccccc3)CC2)cc1` (stereo not drawn)?
2A StopGo: 3%; RE007 growth inh: -6%

Results for CNC(=O)C[C@@H]1C(=O)N(C2CCCCC2)CC1(C)C ?
2A StopGo: 4%; RE007 growth inh: 6%

What do the screens show for `COc1cccc(Nc2nc(C(N)Cc3ccc(F)cc3)cs2)n1` (stereo not drawn)?
2A StopGo: -18%; RE007 growth inh: 7%[18.4 µM]

Results for CCN1C(=O)[C@H]2[C@@H](c3ccc(OC)cc3)N[C@]3(CCCN(Cc4ccc(Cl)cc4)C3=O)[C@H]2C1=O ?
2A StopGo: -21%; RE007 growth inh: 15%

How did Cc1cc2nc(CN(C)C(=O)C3CCC(=O)N(C4CCCC4)C3)[nH]c2cc1C (stereo not drawn) do in these assays?
2A StopGo: 0%; RE007 growth inh: -11%

What do the screens show for `CC1=C(C(=O)N2CCOCC2)CC(CC(=O)NCC2CCCCC2)C(=O)N1Cc1ccc(F)cc1` (stereo not drawn)?
2A StopGo: 0%; RE007 growth inh: 5%

What do the screens show for `CC(C)C1Cc2[nH][nH]c(=O)c2C(c2ccc(Cl)cc2)O1` (stereo not drawn)?
2A StopGo: 0%; RE007 growth inh: -3%

Results for OC(c1cccc(Cl)c1)c1nc(/C=C/c2ccccc2)cs1 (stereo not drawn) ?
2A StopGo: 10%; RE007 growth inh: -12%[18.4 µM]

What do the screens show for `CCCNC(=O)C1(C)CCCN(C(=O)c2ccc3ccccc3c2)C1` (stereo not drawn)?
2A StopGo: -20%; RE007 growth inh: -7%

Results for CCCNC(=O)C1(C)CCN(C(=O)C(c2ccccc2)c2ccccc2)C1 (stereo not drawn) ?
2A StopGo: -7%; RE007 growth inh: 6%[18.4 µM]

Results for O=C(Nc1cccc(Cl)c1)c1csc(COCCO)n1 ?
2A StopGo: 35%[activator]; RE007 growth inh: 6%

What do the screens show for `COCCNC(=O)C1CCCN(Cc2ccc(-c3ccccc3)cc2)CC1` (stereo not drawn)?
2A StopGo: -16%; RE007 growth inh: 1%

What do the screens show for `CC(C)CC1C(=O)N(Cc2cn(CC3CCCCC3)nn2)CCS(=O)(=O)N1Cc1ccc(-c2cccc(C#N)c2)cc1` (stereo not drawn)?
2A StopGo: -22%; RE007 growth inh: -5%

How did CC(C)(C)S(=O)(=O)N1C[C@@H]2C(=CC[C@H]3C(=O)N(c4ccccc4)C(=O)[C@@H]23)[C@@H]1CCO do in these assays?
2A StopGo: -20%; RE007 growth inh: -5%

What do the screens show for `COc1ccccc1N1CCN(C(=O)c2ccc3noc(-c4ccccc4)c3c2)CC1`?
2A StopGo: inconclusive; RE007 growth inh: 3%

How did COc1ccc(-c2nc3ccc(Cl)cn3c2Cc2ccccc2C(F)(F)F)cc1OC do in these assays?
2A StopGo: -6%; RE007 growth inh: -22%

How did O=C(Nc1nnc([C@@H]2C[C@H](O)[C@@H](CO)O2)s1)Nc1ccccc1C(F)(F)F do in these assays?
2A StopGo: -2%; RE007 growth inh: 7%[18.4 µM]

How did CC(=O)Nc1ccc(CN(C)c2c(C)nc3ccc(C(=O)Nc4ccc(Cl)c(Cl)c4)cn23)cc1 do in these assays?
2A StopGo: 0%; RE007 growth inh: 5%

What do the screens show for `O=C(OC1CC2CC1[C@H]1CCCCN1C2=O)N1CCC(c2ccccc2)CC1` (stereo partly drawn)?
2A StopGo: inconclusive; RE007 growth inh: 1%

How did COc1cccc(OC)c1C(=O)NCCNc1nc2cc(C)cc(C)c2cc1C#N do in these assays?
2A StopGo: -17%; RE007 growth inh: -8%

What do the screens show for `CO[C@H]1CN(C)C(=O)c2ccc(NS(=O)(=O)c3ccccc3F)cc2OC[C@H](C)NC[C@@H]1C`?
2A StopGo: -7%; RE007 growth inh: 4%

How did CCc1ccc(CN(C)C(=O)c2cc(COc3cncc(Cl)c3)on2)cc1 do in these assays?
2A StopGo: -15%; RE007 growth inh: -11%

How did C[C@@H]1CN([C@H](C)CO)C(=O)CCCn2nncc2CO[C@@H]1CN(C)S(=O)(=O)c1ccc2ccccc2c1 do in these assays?
2A StopGo: 0%; RE007 growth inh: -20%

What do the screens show for `COc1ccc(CCN(C)C(=O)c2cccc(S(=O)(=O)N3CCN(c4ccc(F)cc4)CC3)c2)cc1OC`?
2A StopGo: inconclusive; RE007 growth inh: -4%

What do the screens show for `Cc1ccccc1C(=O)N(C)[C@H]1C[C@H]2c3[nH]c4ccccc4c3CCN2C(=O)[C@H]1[C@H](C)O`?
2A StopGo: -8%; RE007 growth inh: -10%

Results for CCCCOc1ccc(S(=O)(=O)NC(=O)C2(C)CCN2C(=O)c2cccc(F)c2)cc1 (stereo not drawn) ?
2A StopGo: -1%; RE007 growth inh: 11%

Results for COCCNC(=O)C1(C)CCCN(Cc2ccc(Cl)c(Cl)c2)C1 (stereo not drawn) ?
2A StopGo: inconclusive; RE007 growth inh: -9%

How did COCCCN1C(=O)C(CC(=O)NC2CC2)CC(C(=O)N2CCOCC2)=C1C (stereo not drawn) do in these assays?
2A StopGo: -1%; RE007 growth inh: 30%

Results for CCCCn1nnnc1C(c1cc2ccccc2o1)N1CCN(CCN(C)C)CC1 (stereo not drawn) ?
2A StopGo: -6%; RE007 growth inh: 6%

Results for CN(C)C(=O)c1cccc(-c2cccc(-c3nc(C(=O)NCc4ccccc4)cc4c3[C@H](CCO)N(S(=O)C(C)(C)C)C4)c2)c1 (stereo partly drawn) ?
2A StopGo: -22%; RE007 growth inh: 4%

Results for O=C(NCc1ccccc1)[C@@H]1CCCN1C(=O)[C@@H]1CCCN1C(=O)c1cccs1 ?
2A StopGo: -18%; RE007 growth inh: 3%

Results for CCCCn1c(NCc2cc(C)ccc2O)nc2ccccc21 ?
2A StopGo: -22%; RE007 growth inh: -16%

Overlap with the part before: 2 entries, then new ones.
Results for O=C(NCc1ccccc1)[C@@H]1CCCN1C(=O)[C@@H]1CCCN1C(=O)c1cccs1 ?
2A StopGo: -18%; RE007 growth inh: 3%

Results for CCCCn1c(NCc2cc(C)ccc2O)nc2ccccc21 ?
2A StopGo: -22%; RE007 growth inh: -16%

Results for Cc1cc(C)c(C(=O)c2ccccc2C(=O)O)c(C)c1 ?
2A StopGo: -15%; RE007 growth inh: 23%

Results for CSCCC(C(=O)Nc1c(C)cccc1C)n1c(-c2cc(C)cs2)nc2ccccc21 (stereo not drawn) ?
2A StopGo: -23%; RE007 growth inh: 5%

Results for O=C(NC(c1ccc(Cl)cc1)c1ccccn1)C1CCN(CCOc2ccc(Cl)cc2Cl)CC1 (stereo not drawn) ?
2A StopGo: -29%; RE007 growth inh: -24%[18.4 µM]

How did CSc1ncccc1C(=O)OCC(=O)c1ccc(Cl)s1 do in these assays?
2A StopGo: -12%; RE007 growth inh: -13%

How did CCN(CC(=O)Nc1c(F)cccc1F)C(=O)c1ccc(S(=O)(=O)N(CC)c2ccccc2)cc1 do in these assays?
2A StopGo: -8%; RE007 growth inh: -2%

What do the screens show for `COc1cccc(-c2cnc3c(NC(C)=O)cc(-c4ccccc4OC)cn23)c1`?
2A StopGo: inconclusive; RE007 growth inh: -6%

How did Cc1cc2c(cc1C)-n1nnnc1C(N(Cc1ccccc1)Cc1ccccc1)C(=O)N2 (stereo not drawn) do in these assays?
2A StopGo: -24%; RE007 growth inh: 1%

How did O=C(Cc1cccc(NC(=O)C2CCCN(C(=O)C3CCCCC3)C2)c1)Nc1ccc(C(=O)N2CCCCC2)cc1 (stereo not drawn) do in these assays?
2A StopGo: 0%; RE007 growth inh: 13%

What do the screens show for `COc1cc(/C=C2/SC(=S)N(CC(=O)NNC(=O)c3ccc(F)cc3)C2=O)cc(OC)c1OC`?
2A StopGo: -10%; RE007 growth inh: -2%

What do the screens show for `COc1ccccc1CN1CC(C(=O)N(C)CCc2ccccn2)CCC1=O` (stereo not drawn)?
2A StopGo: 3%; RE007 growth inh: 12%

What do the screens show for `COc1ccc(/C=N/NC(=O)c2nnn(-c3nonc3N)c2C)cc1OC`?
2A StopGo: -10%; RE007 growth inh: -7%

What do the screens show for `CCc1ccc([C@@H]2C[C@H]3[C@@H](CN2S(=O)(=O)c2ccc(C)cc2)C(=O)C[C@@H](c2ccccc2)N3S(=O)(=O)c2ccc(C)cc2)cc1`?
2A StopGo: -19%; RE007 growth inh: 11%
